# EPAC2 agonist: qHTS for Agonist of cAMP-regulated guanine nucleotide exchange factor 4 (EPAC2): primary screen. actives 0.079% (n = 360,000). Rap guanine nucleotide exchange factor 4 (Homo sapiens), Q8WZA2. EPAC2 activation, biochemical qHTS; response scale: 100% = 6.5 mM cAMP response. Potency, µM (series often up to 154 µM), for the others: top-dose activation, hits mostly activators; active = well fitted activation curve with a large enough effect; note: nearly all actives have a fitted effect of over 50% in size
# Target sequence (Q8WZA2 whole entry, looked up): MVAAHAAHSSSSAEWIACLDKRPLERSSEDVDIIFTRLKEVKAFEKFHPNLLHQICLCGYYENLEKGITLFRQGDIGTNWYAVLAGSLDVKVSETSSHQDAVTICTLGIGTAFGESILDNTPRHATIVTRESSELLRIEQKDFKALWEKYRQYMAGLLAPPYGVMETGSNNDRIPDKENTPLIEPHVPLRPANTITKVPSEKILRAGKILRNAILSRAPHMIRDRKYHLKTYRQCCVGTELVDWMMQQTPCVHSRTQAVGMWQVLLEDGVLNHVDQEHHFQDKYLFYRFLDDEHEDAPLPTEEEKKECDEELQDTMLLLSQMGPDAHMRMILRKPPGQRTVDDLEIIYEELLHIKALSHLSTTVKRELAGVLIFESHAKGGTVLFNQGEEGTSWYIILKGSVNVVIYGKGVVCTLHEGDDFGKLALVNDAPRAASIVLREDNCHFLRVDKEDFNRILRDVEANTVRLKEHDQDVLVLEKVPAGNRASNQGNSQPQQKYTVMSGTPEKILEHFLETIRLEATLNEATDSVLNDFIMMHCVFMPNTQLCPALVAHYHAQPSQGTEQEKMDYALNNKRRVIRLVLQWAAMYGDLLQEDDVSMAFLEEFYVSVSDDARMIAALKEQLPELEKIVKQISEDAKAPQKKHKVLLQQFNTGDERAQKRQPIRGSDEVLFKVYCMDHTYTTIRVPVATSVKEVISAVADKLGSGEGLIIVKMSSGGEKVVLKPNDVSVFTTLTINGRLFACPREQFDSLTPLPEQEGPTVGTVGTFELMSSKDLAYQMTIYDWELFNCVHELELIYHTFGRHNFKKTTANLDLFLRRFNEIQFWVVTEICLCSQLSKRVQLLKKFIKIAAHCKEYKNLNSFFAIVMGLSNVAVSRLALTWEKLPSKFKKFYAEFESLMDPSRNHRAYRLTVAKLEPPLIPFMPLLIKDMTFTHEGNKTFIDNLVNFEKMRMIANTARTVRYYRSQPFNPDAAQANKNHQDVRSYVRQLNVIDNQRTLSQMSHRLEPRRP
#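 EPAC2 (100 nM) mixed with Rap1B loaded with BODIPY-GDP (250 nM) plus 50 uM unlabeled GDP; compounds pinned in, 5 min RT, then read every 5 min for 30 min (ex 480, em 540 nm). Normalized to cAMP control.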
# * marks the source's active call; other numbers are inactive results; & = joins results of further samples. Potency is the fitted concentration of half-maximal effect. These rows are one share of the data; most or all hits stand in other tables.
mol	EPAC2 agonist
CC(C)(C)CC(C)(C)c1ccc(OCCOCC[N+](C)(C)Cc2ccccc2)cc1	5%
O=C(O)c1cc(NS(=O)(=O)c2cccc3ccccc23)ccc1O	9%
Cc1nn(CC(=O)O)c(C)c1Cl	9%
CCOc1ccccc1C1NC(=O)c2ccccc2N1 (centres undefined)	10%
CC(=O)Nc1cccc(-c2nnc(-c3ccc(C)cc3)o2)c1	3%
C[C@H](C(=O)O)c1cccc(C(=O)c2ccccc2)c1	1%
COc1ccc(C2CC(c3ccccc3)=NN2C(=O)CCCC(=O)O)cc1 (centres undefined)	16%
COc1ccc(CC(C)NCC(O)c2ccc(O)c(NC=O)c2)cc1 (centres undefined)	2%&12%

# Two records drawn at random from those above:
mol	EPAC2 agonist
COc1ccc(CC(C)NCC(O)c2ccc(O)c(NC=O)c2)cc1 (centres undefined)	2%&12%
CC(=O)Nc1cccc(-c2nnc(-c3ccc(C)cc3)o2)c1	3%

# Grouped by structure, the compounds so far containing nitrogen in an aromatic ring
mol	EPAC2 agonist
Cc1nn(CC(=O)O)c(C)c1Cl	9%
CC(=O)Nc1cccc(-c2nnc(-c3ccc(C)cc3)o2)c1	3%

# Screening results from PubChem.
